# High-throughput results from PubChem BioAssay.
# Mtb growth – M. tuberculosis H37Rv growth inhibitors, H37Rv strain (AID 1626). 0.95% of 220,000 active. M. tuberculosis H37Rv growth inhibition; higher % means a stronger effect. one-dose inhibition, % at 10 µM; IC50 in µM for titrated hits;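 active = confirmed in a dose series; inconclusive = inhibition above 80% but not taken into the dose series; inactive = below 80% or under 30% at every dose of the series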;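 also: bacteria incubated seven days before Alamar blue readout; 0% = bacteria only wells and 100% = bacteria with antibiotic wells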
# Mtb bLac sens – beta-lactam sensitization of Mtb H37Rv, H37Rv | M. tuberculosis H37Rv growth with meropenem, percent inhibition; hits of this screen are not shown here | inhibition, % at 25 µM | 0.27% of 330,000 active;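 active = about 74% or more and at least 40 points above the plate without the antibiotic, then above 30% in a dose series; inconclusive = first-round hits that could not be retested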;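 also: growth measured after seven days incubation then overnight dye step; 0% = bacteria only wells and 100% = bacteria with antibiotic; twin plates without the antibiotic show which effects depend on it; some results filed as inactive read as strong as hits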
# Arbovirus anti – antivirals against arbovirus infection, primary screen, cell-based, full library, 10K replicate subset; arbovirus infection cell-based antiviral screen; 0.37% of 200,000 active; AID 1251, 2008; inhibition, % at 10 µM;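 active = inhibition from about 30%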;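 also: bluetongue infection of BSR cells; cell survival read as ATP light after 72 h; 0% = infected wells without compound and 100% = uninfected wells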
# YopH PTP inh – YopH tyrosine phosphatase inhibitors, primary screen, biochemical, fluorescence Ex485/Em525. YopH tyrosine phosphatase [Yersinia enterocolitica]. inhibition, %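 (about 10 µM by stock and volumes)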. 0.16% of 140,000 active. AID 898, 2007;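 active = inhibition of 50% or more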;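 also: controls were vehicle for no effect and minimum signal wells for full effect; inactives centre near -20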
# RecA splice inh – Mtb RecA intein splicing inhibitors, primary screen, biochemical, fluorescence, HTS | inhibition, %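 (about 9 µM by stock and volumes)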 | Protein RecA (Mycobacterium tuberculosis (strain ATCC 25618 / H37Rv)), P9WHJ3 | AID 2221, 2009 | cell-free RecA intein splicing | 0.75% of 290,000 active; in the data active = inhibition above about 30%; inconclusive = no clear call, values can overlap the other calls;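 also: 0% = vehicle wells and 100% = reference inhibitor control wells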
# Target sequence (P9WHJ3 whole entry, looked up, canonical isoform): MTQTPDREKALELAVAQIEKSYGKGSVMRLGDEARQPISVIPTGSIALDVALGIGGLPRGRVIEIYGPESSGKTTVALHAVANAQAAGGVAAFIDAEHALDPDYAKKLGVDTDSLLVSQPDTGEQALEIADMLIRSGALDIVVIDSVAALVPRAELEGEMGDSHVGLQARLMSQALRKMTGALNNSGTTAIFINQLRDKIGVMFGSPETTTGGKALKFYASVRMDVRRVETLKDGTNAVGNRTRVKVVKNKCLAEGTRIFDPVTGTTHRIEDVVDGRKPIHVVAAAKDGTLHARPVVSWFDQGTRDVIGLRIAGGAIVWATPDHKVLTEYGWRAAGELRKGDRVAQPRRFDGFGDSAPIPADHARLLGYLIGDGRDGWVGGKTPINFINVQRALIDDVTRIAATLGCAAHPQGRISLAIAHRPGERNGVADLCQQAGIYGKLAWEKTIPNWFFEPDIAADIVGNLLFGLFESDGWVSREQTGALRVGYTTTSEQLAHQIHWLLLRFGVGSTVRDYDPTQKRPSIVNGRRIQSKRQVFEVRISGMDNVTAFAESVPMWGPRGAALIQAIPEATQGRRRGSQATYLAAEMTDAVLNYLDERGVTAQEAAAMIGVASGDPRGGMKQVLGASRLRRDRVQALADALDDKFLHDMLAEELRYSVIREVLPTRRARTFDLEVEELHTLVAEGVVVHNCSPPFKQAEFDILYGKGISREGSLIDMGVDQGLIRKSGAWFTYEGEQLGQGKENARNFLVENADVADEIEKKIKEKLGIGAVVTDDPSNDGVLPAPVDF
# Arbovirus anti repeat – also measured in Arbovirus anti; calls as there; inhibition, %; measured here: 10K subset replicate screen; many hits read low in the repeat;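 first of two repeat runs on a subset; 0% = infected and 100% = uninfected wells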
# Active calls of the source: *; ? = inconclusive; · = no result given.
SMILES,Mtb growth,Mtb bLac sens,Arbovirus anti,YopH PTP inh,RecA splice inh,others
CCOc1ccccc1NC(=S)N(CCOC)C1CCN(C(C)=O)CC1,2.8%,-11.9,·,·,0.6,
CCP(=O)(c1cccc([N+](=O)[O-])c1)c1cccc([N+](=O)[O-])c1,-7.5%,-2.7,·,·,-0.7,
COc1ccc(N=C2O/C(=C/c3sc(=S)n(CC4CCCO4)c3O)N=C2C#N)cc1 (stereo unspecified),-8.2%,-1.0,·,·,0.6,
CC(C)c1ccc(NC(=S)NC2CCN(Cc3ccccc3)CC2)cc1,9.4%,2.7,-25.8,-20.0,5.7,
C/C(Nc1ccc(Cl)cc1)=C(/C#N)C(N)=O,4.1%,6.2,4.3,-1.5,-0.7,
O=c1oc2c3c4c(cc2s1)CCCN4CCC3,3.8%,0.3,-5.1,18.2,3.8,Arbovirus anti repeat=-10.6
O=C(CCc1c[nH]c2ccccc12)Nc1ncccc1O,·,?,·,·,3.5,
CCCCNC(=O)C1CCN(S(=O)(=O)c2c(C)noc2/C=C\c2ccc(OC)cc2)CC1,6.7%,-1.1,-15.2,-10.3,-2.7,
COc1ccc(Br)cc1CNc1ccc(O)cc1,1.3%,12.1,-7.1,14.6,·,
O=C(NC1CCCC1)c1cc(Cl)ccc1[N+](=O)[O-],9.0%,-5.2,-0.3,-0.1,-4.3,
CSc1cccc(NC(=O)C2CCN(S(=O)(=O)c3ccc(F)cc3)CC2)c1,-6.6%,65.7,-11.5,12.3,0.6,Arbovirus anti repeat=-1.2
CCOC(=O)N1CCN(C(=O)Cn2ccc3ccccc3c2=O)CC1,7.3%,-4.5,-3.9,-40.7,12.2,
O=C(O)c1nc(N2CCCC2)ncc1Cl,1.9%,1.8,8.5,-10.6,-1.1,
CC1=NN(C(=O)CSCc2ccccc2)C(O)(c2ccc(Cl)cc2)C1 (stereo unspecified),-1.8%,4.8,-12.1,·,2.3,
Cn1c(=O)[nH]c(=O)c2c1nc(CN1CCN(c3cccc(Cl)c3)CC1)n2CCc1ccccc1,9.7%,?,-2.1,2.5,-1.8,
Cc1cc(C)n2nc(C(=O)Nc3nnc(C4CC4)s3)nc2n1,-7.0%,-5.0,2.8,-30.7,-0.6,
Cn1c(NC(=O)c2cc(Br)ccc2Cl)cc(=O)n(C)c1=O,2.7%,0.5,8.2,-23.8,-0.7,Arbovirus anti repeat=8.1
O=C(CCCn1c(=O)c2ccccc2n(Cc2ccccc2)c1=O)NCc1ccco1,-3.1%,-10.8,-12.2,0.2,-3.4,
COc1ccc(NC(=O)c2ccc(-n3c(C)ccc3C)cc2)c(OC)c1,7.2%,4.0,-3.2,·,1.4,
Cc1nc(N2CCC(C(N)=O)CC2)c2c(-c3cccs3)csc2n1,1.1%,18.9,10.8,·,-4.8,
O=C(Nc1ccc(S(=O)(=O)Nc2ncccn2)cc1)c1ccccc1Cl,·,-3.1,·,·,1.5,
Cc1cc(C)nc(SCC(=O)NN)n1,-3.0%,7.5,3.9,·,-1.4,
COc1ccc(CN2CCC(=O)NC2=O)cc1,-6.1%,-12.9,2.7,-32.8,-0.4,
O=C(O)CCc1nn2c3ccccc3nc2n(CCN2CCCCC2)c1=O,-14.2%,-12.3,0.8,-49.2,-3.2,

# Next part (5 carried over from the part before).
SMILES,Mtb growth,Mtb bLac sens,Arbovirus anti,YopH PTP inh,RecA splice inh,others
Cc1nc(N2CCC(C(N)=O)CC2)c2c(-c3cccs3)csc2n1,1.1%,18.9,10.8,·,-4.8,
O=C(Nc1ccc(S(=O)(=O)Nc2ncccn2)cc1)c1ccccc1Cl,·,-3.1,·,·,1.5,
Cc1cc(C)nc(SCC(=O)NN)n1,-3.0%,7.5,3.9,·,-1.4,
COc1ccc(CN2CCC(=O)NC2=O)cc1,-6.1%,-12.9,2.7,-32.8,-0.4,
O=C(O)CCc1nn2c3ccccc3nc2n(CCN2CCCCC2)c1=O,-14.2%,-12.3,0.8,-49.2,-3.2,
NC(=O)C1CCN(Cc2nc(-c3ccccc3)no2)CC1,-15.4%,-17.0,3.8,-59.1,-2.1,
O=C1N/C(=N/O)S/C1=C\c1ccccc1-n1cccn1,4.6%,0.7,-0.4,·,3.0,
CCCCC(O)(c1ccc(OC)cc1)C(CN1CCOCC1)c1ccccc1 (stereo unspecified),·,7.0,·,·,3.2,
O=C(Nc1nnc(SCc2c(Cl)cccc2Cl)s1)C1CC(=O)N(c2ccc3c(c2)OCCO3)C1 (stereo unspecified),0.0%,-3.4,2.4,·,1.5,
CCN(CC)CCCN=Cc1c(O)n(-c2c(C)cccc2C)c(=O)c2ccccc12,-2.5%,-1.3,·,·,·,
N#Cc1nc(-c2ccco2)oc1NCCCn1ccnc1,-4.8%,-13.1,1.7,-52.7,0.8,
O=C(O)c1ccc(CNC(=O)c2ccc3c(c2)OCCO3)cc1,·,5.4,·,·,-1.1,
COc1ccc([C@H]2CC(=O)c3c(O)cc(O)cc3O2)cc1O,-4.2%,-3.8,·,·,-2.7,
S=c1nn[nH]n1C12CC3CC(CC(C3)C1)C2,-9.8%,3.4,-0.6,-5.2,1.9,
CCN(CC)C(=O)Cn1cc(S(=O)(=O)CC(=O)N2CC(C)OC(C)C2)c2ccccc21 (stereo unspecified),·,-2.2,·,·,0.7,
CCOC(=O)c1c(NC(=O)CSc2nnnn2-c2ccc(OC)cc2)sc(C)c1C,37.1%,83.9,-2.5,-32.3,-0.9,
CCN(CC)C(=O)COC(=O)c1ccc(O)cc1,-3.9%,-4.0,5.4,5.5,-2.1,Arbovirus anti repeat=7.0
CCCc1cc(N2CCCC2)n2nc(C)c(-c3ccccc3)c2n1,-0.9%,0.8,14.7,13.1,-1.8,
Clc1ccccc1CSc1nnc(-c2ccccn2)n1Cc1ccco1,6.1%,-14.9,15.2,-30.3,·,Arbovirus anti repeat=-3.5
Cc1noc(C)c1C(=O)OCC(=O)Nc1cc(Cl)ccc1Oc1ccccc1,3.0%,-8.4,47.3*,-31.6,12.8,
COc1ccc(O[C@H]2C=C[C@@H](c3ccccc3)O[C@@H]2COC(=O)CC/C(C)=N/O[C@@H](C)CN2CCCCc3nc(C)c(C)cc32)cc1,·,·,8.5,-27.8,7.6,
C=CCn1c(SCC(=O)Nc2ccc3c(c2)OCO3)nnc1-c1ccccc1,12.9%,-3.6,-21.0,-9.9,0.2,
Cc1c(CCOC(=O)C23CC4CC(CC(C)(C4)C2)C3)sc[n+]1Cc1ccccc1,1.8%,86.7,-18.3,-30.0,2.8,
O=C(/C=C/c1ccc(-c2ccccc2[N+](=O)[O-])o1)c1ccc(Br)cc1,-0.7%,·,-3.0,-27.2,10.4,
O=C(OCC(=O)N1CCN(C(=O)c2ccco2)CC1)c1cc(-c2ccco2)nc2ccccc12,5.0%,·,-0.2,-36.7,·,
COc1cc(NS(=O)(=O)c2ccc(NC(=O)CN3C(=O)c4ccccc4C3=O)cc2)nc(OC)n1,-5.2%,-7.9,7.4,·,·,
Cc1ccc2c(nc3s/c(=C\c4ccc(-c5ccccc5C(=O)O)o4)c(=O)n32)c1C,·,12.0,·,·,-5.7,
COc1ccccc1-c1noc(-c2cccs2)n1,2.9%,3.1,1.4,-12.5,2.0,
CN(Cc1cn(C)nc1-c1cccc(Cl)c1)Cc1nccn1C,19.9%,-4.7,·,·,-2.2,
Cc1cccc(C2c3[nH]c4ccccc4c3CCN2C(=O)c2nn(C)c(=O)c3ccccc23)n1 (stereo unspecified),18.9%,60.9,-5.7,·,2.6,
NC(=S)N/N=C\c1ccc(-c2cccc(Cl)c2Cl)o1,65.7%,88.1,-20.1,-14.0,12.6,
Clc1cccc(Cl)c1C1N2CCCN12 (stereo unspecified),30.3%,-2.2,-1.9,-11.4,0.3,
COc1ccc(CC(=O)OCC(=O)c2ccc(OC)cc2)cc1,4.1%,18.9,0.2,-24.7,-1.7,
CCOC(=O)C1(Cc2ccc(OC)cc2)CCN(C(=O)c2cccc3nccnc23)CC1,5.5%,-3.6,3.5,·,4.0,
Cc1ccn2cc(-c3cccc(NC(=O)CCC(=O)O)c3)nc2c1,·,-10.4,·,·,-3.5,
COc1ccc(/C=C(/NC(=O)c2ccccc2)C(=O)NCc2ccco2)cc1,·,-5.4,·,·,-1.2,
Cc1cccn2cc(COc3ccc(-c4ccccc4)cc3)nc12,6.6%,·,1.6,·,2.4,
Cc1ccc(CCNS(=O)(=O)c2cc3c(cc2C)NC(=O)CO3)cc1,·,10.3,·,·,2.7,
CC1CN(C(=S)Nc2ccccc2)CC(C)O1 (stereo unspecified),·,-7.4,·,·,-5.1,
CCOC(=O)N1CCN(C(=O)CCN2C(=O)COc3ccccc32)CC1,-6.0%,1.2,11.0,-32.5,-1.5,
Cc1ccc(NC(=O)CSc2nc(N)cc(=O)[nH]2)cc1S(=O)(=O)N1CCOCC1,-6.6%,-5.6,·,·,-1.7,

# Among those listed so far, three have a thiophene ring, fused or not:
SMILES,Mtb growth,Mtb bLac sens,Arbovirus anti,YopH PTP inh,RecA splice inh,others
Cc1nc(N2CCC(C(N)=O)CC2)c2c(-c3cccs3)csc2n1,1.1%,18.9,10.8,·,-4.8,
CCOC(=O)c1c(NC(=O)CSc2nnnn2-c2ccc(OC)cc2)sc(C)c1C,37.1%,83.9,-2.5,-32.3,-0.9,
COc1ccccc1-c1noc(-c2cccs2)n1,2.9%,3.1,1.4,-12.5,2.0,

# Remaining list, next part.
SMILES,Mtb growth,Mtb bLac sens,Arbovirus anti,YopH PTP inh,RecA splice inh,others
COc1ccc(-n2nc3c(N)n[nH]c3cc2=O)cc1,-1.6%,-7.4,-1.9,·,-1.4,
COc1ccc(-c2nn(CCC#N)cc2C(=O)Nc2ccccc2)cc1OC,·,2.4,·,·,-1.7,
COc1ccc(CC(=O)NC2CCCc3ccccc32)cc1 (stereo unspecified),2.5%,-2.7,5.0,·,9.0,
CCOC(=O)c1c(NC(=O)COC(=O)Cc2n[nH]c(=O)c3ccccc23)sc(C(=O)N(C)C)c1C,·,-7.3,·,·,-0.3,
CCCCC1=CC2=CC(=O)C(C)(OC(=O)CC)C(=O)C2=CO1 (stereo unspecified),0.6%,-4.5,·,·,-3.9,
COc1ccc(Cl)cc1Nc1nc(-c2sc(NC(=O)c3ccccc3)nc2C)cs1,-6.5%,?,-26.2,18.7,0.8,
CC(=O)Nc1ccc(-c2csc(Nc3ccc(S(N)(=O)=O)cc3)n2)cc1,-4.3%,-4.2,-5.0,·,1.2,
COc1ccc(NC(=O)NNC(=O)CCC(=O)Nc2ccccc2Cl)cc1,-1.9%,-8.3,5.2,·,-4.7,
Cc1cccc(CSC2=NCCN2S(=O)(=O)c2ccc(F)cc2)c1,·,?,·,·,11.1,
NS(=O)(=O)c1ccc(CNc2nc(-c3cccnc3)nc3ccccc23)cc1,·,1.0,·,·,-0.5,
CCOC(=O)c1ccc2[nH]c3c(c2c1)CCCC3,·,15.6,·,·,-1.6,
CCN(CC)c1nc(OCCNC(=O)Nc2ccccc2)nc(N(CC)CC)n1,31.4%,-11.7,-34.6,-0.2,8.6,

# Some of these compounds in order of count of non-hydrogen atoms, high to low.
SMILES,Mtb growth,Mtb bLac sens,Arbovirus anti,YopH PTP inh,RecA splice inh,others
CCN(CC)c1nc(OCCNC(=O)Nc2ccccc2)nc(N(CC)CC)n1,31.4%,-11.7,-34.6,-0.2,8.6,
NS(=O)(=O)c1ccc(CNc2nc(-c3cccnc3)nc3ccccc23)cc1,·,1.0,·,·,-0.5,
CCCCC1=CC2=CC(=O)C(C)(OC(=O)CC)C(=O)C2=CO1 (stereo unspecified),0.6%,-4.5,·,·,-3.9,

# Next records.
SMILES,Mtb growth,Mtb bLac sens,Arbovirus anti,YopH PTP inh,RecA splice inh,others
COc1cc(/C=N/c2oc(-c3ccccc3)cc2C#N)ccc1O,-2.6%,1.0,-7.5,-38.0,-0.6,
CC(C)(C)NC(=O)c1ccc2nccnc2c1,-4.9%,4.8,4.5,-44.6,0.8,
COc1ccc(/C=C(/NC(=O)c2ccc(C)cc2)C(=O)N2CCCC2)cc1OC,·,3.0,·,·,-1.7,
COc1cccc(/C=C2/Oc3ccccc3N(CC(=O)NCC3CCCO3)C2=O)c1 (stereo unspecified),·,-11.1,·,·,-13.3,
CC(C)c1ccc(NC(=O)CCCC(=O)NCCc2ccccc2)cc1,·,81.8,·,·,-0.3,
O=C(c1cccc(Oc2c(Cl)cccc2[N+](=O)[O-])c1)N1CCCCC1,8.5%,0.4,-11.2,·,5.1,

# A portion of the library; the hit share may differ from the screen's.
